Screening results as filed in PubChem BioAssay.
ALR H2O2 inh: inhibitors of human ALR sulfhydryl oxidase, primary screen, biochemical, H2O2 detection, HRP-luminol luminescence, single point. purified ALR, DTT oxidation. AID 485317, 2010. inhibition, % (test concentration not listed). 290,000 compounds, 3.8% hits;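 active = mean and each replicate at 75% or more; inconclusive = only one of the two met; inactive = neither met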;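 also: stock transfer was 7.5 nL into about 7.5 µL; 0% = neutral wells and 100% = wells with inactivated enzyme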
Target sequence (P55789 whole entry, looked up): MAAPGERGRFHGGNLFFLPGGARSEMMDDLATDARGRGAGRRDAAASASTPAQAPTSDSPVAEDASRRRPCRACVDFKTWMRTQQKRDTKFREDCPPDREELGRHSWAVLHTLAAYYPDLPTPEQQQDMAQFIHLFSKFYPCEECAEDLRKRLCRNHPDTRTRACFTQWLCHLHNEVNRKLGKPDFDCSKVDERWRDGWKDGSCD
rRNA inh HTS: reduced GFP signal of wild-type E. coli, primary screen, bacterial rRNA inhibitor project, GFP/RFP fluorescence, OD600, single point. E. coli WT GFP vs humanized-ribosome RFP mutants, 24 h; active compounds read low; DMSO median 0, no signal -100. GFP signal change (wild-type ribosome), % (test concentration not listed). 350,000 compounds, 1.6% hits;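 active = significant combined selectivity score with lowered wild-type GFP, culture density cut under 30%, mutant RFP and density less affected; inactive = any of these conditions unmet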; also: one replicate is shown; some compounds called inactive have numbers as strong as hits
Beta apoptosis: inhibitors of cytokine-induced beta cell apoptosis, primary screen, luminescence. AID 435005, 2010. 300,000 compounds, 0.8% hits. INS-1E cytokine-induced death, ATP luminescence, 48 h; percent of positive-control rescue, neutral wells zero. protection from apoptosis, % (test concentration not listed);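 active = all replicates at 75% or more, or half of them and the mean; inconclusive = half reach 75% but not the mean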;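 also: 0% = cytokine-treated negative control wells and 100% = positive control rescue; higher means more ATP so stronger rescue from cytokine killing; wells of about 40 µL received 100 nL stock; the first replicate is given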
RanGTP-Imp inh: inhibitors of RanGTP-importin-beta interaction, primary screen, biochemical, FRET, CFP-Ran, YFP-importin-beta, homogeneous; cell-free CFP-Ran/YFP-importin-beta FRET ratio; 300,000 compounds, 1.1% hits; inhibition, % (no concentration beside the values); Ran GTPase (GTP-bound) - importin-beta complex;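 active = most replicates above 15%; inconclusive = exactly half above 15%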;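 also: 0% = DMSO wells and 100% = Ran loaded with GDP instead of GTP; wells of about 40 µL received 100 nL stock; the first replicate is given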
Calb FLC: C. albicans growth inhibition with fluconazole, primary screen, CaCi-2 strain, Alamar Blue fluorescence | C. albicans CaCi-2 (fluconazole-resistant clinical isolate) + fluconazole, 48 h | growth inhibition, % (no concentration beside the values) | 300,000 compounds, 0.57% hits;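 active = most replicates above 75%; inconclusive = exactly half above 75%; inactive = most below 75%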;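 also: all wells also contain fluconazole at 8 µg/ml as a sub-toxic cotreatment; 0% = median of DMSO wells and 100% = median of geldanamycin control wells; wells of about 8 µL received 7.5 nL stock; the first replicate is given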
T cruzi inh: inhibitors of intracellular T. cruzi growth, primary screen, luminescence, NIH3T3 host cells; T. cruzi beta-gal in NIH3T3, 90 h; inhibition, % (test concentration not listed); 300,000 compounds, 1.4% hits; AID 1885, 2009;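 active = mean inhibition across valid replicates above about 55%, limit read from the data; inconclusive = mean below that limit but half or more replicates reach it; inactive = mean below it, under half of replicates reach it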;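 also: signal also drops with host cell toxicity which is not excluded here; 0% = plate median of DMSO wells and 100% = zero luminescence signal; higher percent means less beta-gal luminescence so fewer parasites; stock transfer was 50 nL into about 50 µL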
MLL AF4-AF9 inh: inhibitors of AF4 peptide binding to AF9, primary screen, biochemical, AlphaScreen, biotin-AF4 peptide, FLAG-AF9, single point; 350,000 compounds, 0.47% hits; inhibition, % at 10 µM; AID 651704, 2012;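 active = every replicate reaching a set inhibition limit, whatever the replicate mean, cut at about 25% in these data; inconclusive = mean inhibition reaches that limit but some replicates miss it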;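 also: 0% = plate neutral control median and 100% = total signal loss; the record names both 10 and 1 µM as test concentration; the first replicate is given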
Target sequence (P42568 whole entry, looked up): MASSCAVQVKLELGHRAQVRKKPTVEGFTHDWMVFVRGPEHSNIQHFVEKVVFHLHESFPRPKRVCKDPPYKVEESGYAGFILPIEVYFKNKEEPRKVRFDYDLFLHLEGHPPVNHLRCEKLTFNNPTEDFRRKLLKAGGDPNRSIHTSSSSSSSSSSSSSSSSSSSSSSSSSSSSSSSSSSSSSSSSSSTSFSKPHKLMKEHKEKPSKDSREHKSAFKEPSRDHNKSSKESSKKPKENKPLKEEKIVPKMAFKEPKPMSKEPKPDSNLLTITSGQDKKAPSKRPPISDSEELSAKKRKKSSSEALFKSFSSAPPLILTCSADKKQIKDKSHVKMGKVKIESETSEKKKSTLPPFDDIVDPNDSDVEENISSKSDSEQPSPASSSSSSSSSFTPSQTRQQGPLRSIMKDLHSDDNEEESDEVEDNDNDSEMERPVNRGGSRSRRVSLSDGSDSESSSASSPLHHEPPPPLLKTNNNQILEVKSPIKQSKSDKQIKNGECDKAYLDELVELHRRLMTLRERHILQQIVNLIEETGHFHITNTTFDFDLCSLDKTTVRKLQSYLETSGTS
FGF22 binding: binders of human FGF22 protein, primary screen, FGF22 synaptogenesis inhibitor project, biophysical, thermal shift, single point; Fibroblast growth factor 22 (Homo sapiens), Q9HCT0; recombinant FGF22 thermal shift, SYPRO orange fluorescence; percent of sucrose octasulfate shift, DMSO zero; calls only at 9.99 µM; 340,000 compounds, 1.5% hits; AID 651658, 2012;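 active = melting point raised past a set limit in the mean and every replicate; inconclusive = no clear call; three in four hits are not shown here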
Target sequence (Q9HCT0 whole entry, looked up): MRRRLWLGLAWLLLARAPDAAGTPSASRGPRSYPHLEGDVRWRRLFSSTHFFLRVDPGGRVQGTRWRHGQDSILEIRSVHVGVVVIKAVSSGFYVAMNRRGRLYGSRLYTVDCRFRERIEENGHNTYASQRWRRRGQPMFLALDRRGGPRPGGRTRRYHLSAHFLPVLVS
rRNA inh HTS OD600: further read-out of rRNA inh HTS, marked with its call; OD600 change, %; measured here: OD600 growth;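 optical density of the mix in the first replicate; 0 = DMSO median and -100 = no signal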
rRNA inh HTS RFP: further read-out of rRNA inh HTS, marked with its call; RFP signal change, %; measured here: RFP humanized mutant strains;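 first replicate; 0 = DMSO median and -100 = no signal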
Active calls of the source: *; i = inactive; ? = inconclusive; . = not tested or not shown. Not all compounds are listed; rates above refer to the full screens.

Start of the data: the first 5 records, ahead of the listing:
SMILES	ALR H2O2 inh	rRNA inh HTS	rRNA inh HTS OD600	rRNA inh HTS RFP	Beta apoptosis	RanGTP-Imp inh	Calb FLC	T cruzi inh	MLL AF4-AF9 inh	FGF22 binding
O=C(Nc1c2c(nn1-c1cccc(Cl)c1)CS(=O)(=O)C2)c1ccc2c(c1)OCO2	-18.8	2.6	1.6	2.0	1.0	5.0	-4.1	2.3	-4.8	i
COc1ccccc1C(=O)Nc1ccnn1C1CCN(Cc2ccn[nH]2)CC1	-2.9	5.4	17.2	-1.4	-6.2	1.5	3.2	1.0	-0.4	i
O=C(Nn1c(-c2ccc(Br)cc2)nc2ccccc2c1=O)c1ccncc1	-3.0	-8.9	-12.8	-1.4	-1.5	8.0	12.4	-3.6	-0.3	i
CCCN(CC1CC1)C(=O)CSc1nnc(-c2cc(-c3cccs3)nc3ccccc23)o1	0.1	.	.	.	10.7	1.5	-1.3	18.6	.	.
COc1cccc(CN2CCN(C3CCN(c4ccccc4F)CC3)CC2CCO)c1 (centres undefined)	.	6.9	-1.0	3.4	-2.8	1.9	-6.9	43.1	4.3	i

Main list, from the start:
SMILES	ALR H2O2 inh	rRNA inh HTS	rRNA inh HTS OD600	rRNA inh HTS RFP	Beta apoptosis	RanGTP-Imp inh	Calb FLC	T cruzi inh	MLL AF4-AF9 inh	FGF22 binding
O=C(Nc1c2c(nn1-c1cccc(Cl)c1)CS(=O)(=O)C2)c1ccc2c(c1)OCO2	-18.8	2.6	1.6	2.0	1.0	5.0	-4.1	2.3	-4.8	i
COc1ccccc1C(=O)Nc1ccnn1C1CCN(Cc2ccn[nH]2)CC1	-2.9	5.4	17.2	-1.4	-6.2	1.5	3.2	1.0	-0.4	i
O=C(Nn1c(-c2ccc(Br)cc2)nc2ccccc2c1=O)c1ccncc1	-3.0	-8.9	-12.8	-1.4	-1.5	8.0	12.4	-3.6	-0.3	i
CCCN(CC1CC1)C(=O)CSc1nnc(-c2cc(-c3cccs3)nc3ccccc23)o1	0.1	.	.	.	10.7	1.5	-1.3	18.6	.	.
COc1cccc(CN2CCN(C3CCN(c4ccccc4F)CC3)CC2CCO)c1 (centres undefined)	.	6.9	-1.0	3.4	-2.8	1.9	-6.9	43.1	4.3	i
O=[N+]([O-])c1cc(S(=O)(=O)N2CCCC2)ccc1N/N=C/c1cccnc1	.	.	.	.	1.2	0.1	5.4	13.9	.	.
COc1ccc(C2(NC(C)=O)CCN(Cc3cccnc3)CC2)cc1	-1.0	11.6	4.3	0.8	-4.6	-1.3	4.0	-1.1	2.5	i
COC(=O)c1c(C(=O)OC)c(-c2cccc(F)c2)n2c1CS(=O)(=O)C2	.	-2.0	-2.3	0.6	1.6	2.0	1.3	4.2	0.5	i
COc1ccc(S(=O)(=O)NCc2ccc(C(=O)N3CCN(Cc4ccccc4)CC3)cc2)cc1	-0.7	-0.6	-7.0	2.1	-3.8	4.4	-1.7	30.2	-2.4	i
COC(=O)c1ccccc1NC(=O)C1CCC(=O)N1S(=O)(=O)c1ccc(C)cc1 (centres undefined)	-2.6	17.4	-2.4	-3.7	-8.6	-0.2	2.4	-12.3	7.0	i
O=C(CSc1ccccc1)N1CCN(c2ccc(F)cc2)CC1	.	6.9	14.8	-3.1	-2.1	4.3	6.9	3.8	.	i
COc1ccccc1C(=O)NC(=O)CSc1nnc(SC)s1	2.1	-10.4	1.9	-3.8	-8.3	?	7.2	-9.9	-1.6	i
S=C(c1ccc(-c2ccc(Cl)cc2Cl)o1)N1CCCC1	95.8*	-1.8	-1.5	-0.1	-1.1	-3.1	-4.0	-25.9	2.9	i
COc1ccc(CCNC(=O)COC(=O)Cn2cnc3ccccc32)cc1OC	-17.6	4.7	8.0	-3.3	-3.0	?	-34.0	-6.9	0.5	.
O=C(Cn1cnnn1)NC1CCCN(Cc2ccccc2F)C1 (centres undefined)	-0.7	0.1	5.6	-1.6	-0.5	0.0	-0.4	-0.4	-3.0	i
Cc1ccc(CN2CCN(Cc3ccc4cccc(F)c4n3)CC2CCO)cc1 (centres undefined)	-0.2	-2.4	-7.4	-2.9	.	1.4	2.7	14.5	2.1	i
CCC(C)[C@H](NC(=O)N1c2ccccc2NC(=O)[C@@H]1C(C)C)C(=O)N[C@@H](Cc1ccccc1)C(=O)O (some centres undefined)	.	-1.6	1.0	11.6	-3.6	4.7	-3.6	-2.9	0.6	i
CCc1ccc(NC(=O)C2=CC(c3ccc(OC)c(OC)c3)=NS(=O)(=O)N2C)cc1	-8.0	-6.5	-4.4	2.1	-6.7	-3.4	1.2	26.0	7.8	i
COc1cc(C(=O)NCC(c2cccnc2)N2CCN(c3ccccc3)CC2)cc(OC)c1OC (centres undefined)	98.5*	-2.4	0.0	8.6	1.4	-3.4	2.5	45.0	4.6	i
CC1=N/C(=C\c2ccc(OC(C)C)cc2)C(=O)N1c1ccc(C(=O)O)cc1	23.0	9.0	0.7	2.1	2.3	-1.8	-2.0	-10.1	1.8	i
CCN(CC(=O)Nc1ccc(NC(C)=O)cc1)C(=O)CCCOc1ccc(C(C)(C)C)cc1	-5.7	-3.6	-15.9	-2.8	92.8*	?	3.4	-8.5	7.0	i
O=c1[nH]c(/C(=N\O)c2ccccc2)no1	12.2	.	.	.	-10.1	0.5	28.7	?	.	.
Nc1ccc(CCc2ccc(N)cc2)cc1	85.4*	7.1	6.2	-0.2	-2.2	4.6	-31.4	-38.8	.	i
O=C(COc1ccc(S(=O)(=O)NC2CCCCC2)cc1)NC1CC1	18.3	4.4	10.7	2.5	2.8	3.6	5.9	-4.4	-10.9	i
O=C(NCCNc1ccc([N+](=O)[O-])cc1)c1cc(F)c(F)cc1Cl	-10.4	2.4	9.1	-2.2	-6.6	1.8	0.6	-3.3	1.3	i
CCc1c(O)nc(SC2CC(=O)N(c3ccc(F)c(Cl)c3)C2=O)[nH]c1=O (centres undefined)	-2.1	3.1	-4.4	2.0	.	-1.9	27.8	-0.6	0.8	i
COc1ccccc1N1CCN(C2CCCN(C(=O)c3oc(C)cc3C)C2)CC1 (centres undefined)	33.9	8.3	9.5	-0.9	.	-4.5	-16.8	25.2	2.3	i
COc1ccc2[nH]cc(C(=O)NCCc3ccccc3)c(=O)c2c1	5.5	-20.6*	-9.2*	1.8*	-6.4	0.2	-8.5	-2.8	1.1	i
COc1ccc(-c2nn(C)c(=O)c3ccccc23)cc1NC(=O)Cn1nc(-c2ccccc2)c2ccccc2c1=O	-16.8	.	.	.	12.5	-6.7	-7.3	44.3	.	.
COc1ccc(S(=O)(=O)Nc2ccc3c(c2)OCO3)cc1	6.2	.	.	.	6.2	?	-8.9	-7.1	.	.
COc1cccc(C(=O)N(CN2CCCC2=O)c2cc(C)on2)c1	-5.9	1.7	-2.0	3.8	-3.4	-1.7	-20.7	-14.6	.	.
O=[N+]([O-])c1nn(-c2ccc(Cl)cc2)n(O)c1=NCc1ccccc1	-5.1	5.2	8.9	7.6	-1.9	-2.0	3.2	13.7	14.9	i
Cn1ncc([N+](=O)[O-])c1C(=O)Nc1ccc(-c2nc3ccccc3[nH]2)cc1	1.4	.	.	.	9.4	1.7	-28.3	22.8	.	.
CCCCCN1CC(=O)N2[C@@H](Cc3c([nH]c4ccccc34)C2(C)C)C1=O	0.8	12.1	25.8	7.2	-2.4	-0.1	-2.6	0.1	-2.7	i
CCOC(=O)N/N=C\c1cccc(OC)c1OC/C=C/c1ccccc1	-9.0	-6.5	-15.8	2.7	-3.7	4.1	-1.0	17.4	7.7	i
N#Cc1ccc(CSc2nnc(NC(=O)C3CC(=O)N(c4ccc5c(c4)OCCO5)C3)s2)cc1 (centres undefined)	-4.3	.	.	.	4.5	-0.3	3.3	-5.0	.	.
COc1ccc(S[C@@H](CCN2CC[C@H](NC(=O)OCc3ccccc3)CCC2=O)c2ccccc2)cc1	-18.6	-9.4	-10.2	-14.2	3.4	.	.	.	-0.6	i
CCc1cccc(OCCCCN(CC)CC)c1	-18.7	.	.	.	-3.0	6.3	-2.6	3.3	.	.
CN(C)S(=O)(=O)Oc1cccc(C(=O)Nc2ccccc2Cl)c1	-14.7	.	.	.	8.0	-0.3	23.1	2.3	.	.
COc1cccc(CNC(=S)NC2CC2)c1	.	9.6	11.5	-9.1	-6.6	7.4	-13.5	-26.8	-2.1	i
Cc1ccn2c(=O)c(C(=O)NCCCN3CCCCC3C)c(O)nc2c1 (centres undefined)	2.9	.	.	.	-8.0	-0.5	10.5	-10.7	.	.
Cc1cc(NC(=O)CSc2ccc(-c3cccc([N+](=O)[O-])c3)nn2)no1	21.2	4.9	11.2	-0.2	-1.3	-2.0	3.9	7.4	-3.1	i
CCOCc1cc(C2NC(=O)NC(C)=C2C(=O)OCC)ccc1OC (centres undefined)	-5.9	.	.	.	5.0	4.4	2.5	1.1	.	.
O=C(c1nn2c(C(F)(F)F)cc(-c3ccccc3)nc2c1Cl)N1CCN2CCCC2C1 (centres undefined)	.	-9.1	-21.1	-1.2	.	1.8	6.3	14.0	10.6	i
O=C(N/C(=C/C=C\c1ccccc1)C(=O)N1CCOCC1)c1ccc(Br)cc1	51.6	-9.4	-18.8	-0.9	-5.6	-4.2	15.5	6.0	15.2	i
COc1cc2nc(N(CCN(C)C)C(=O)c3ccc(S(=O)(=O)N(C)CC4CCCO4)cc3)sc2cc1OC (centres undefined)	22.3	-0.8	1.3	2.3	-7.8	-1.4	-1.8	21.6	2.1	i
CSc1n[nH]c(=O)n1C1CCCCC1	2.5	-7.1	-1.9	-5.4	-0.9	-0.1	-3.9	.	0.7	i
COc1ccc(CNC(=O)COc2ccc(Br)c(C)c2)cc1	1.7	2.1	4.8	-0.2	-3.8	-8.8	16.7	0.0	-0.6	i
O=S(=O)(NCc1ccc(F)cc1)c1ccccc1Br	-0.4	-19.5	-4.4	-15.8	-10.1	.	.	.	-1.5	i
CCCCC1CN2CCc3c([nH]c4ccccc34)C2(C)C1 (centres undefined)	-18.3	-4.1	-35.5	11.9	3.9	1.2	0.4	20.5	15.4	i
COc1ccc(N2CCN(C3CCCN(C(=O)c4ccoc4)C3)CC2)cc1 (centres undefined)	72.0	1.6	7.9	-0.4	3.5	2.4	-1.9	5.0	-3.8	i
Cc1c(-c2nc(-c3cccnc3)no2)cccc1[N+](=O)[O-]	0.3	11.9	4.9	-5.9	-0.3	?	9.3	-21.5	-0.1	i
O=C(COC(=O)[C@@H]1CCCN1S(=O)(=O)c1ccccc1F)NCc1ccc2c(c1)OCO2	-3.7	6.2	5.4	2.1	-1.6	.	.	.	-1.3	i
